High-throughput results (PubChem BioAssay)
Arbovirus anti: antivirals against arbovirus infection | arbovirus infection cell-based antiviral screen | inhibition, % at 10 µM | 200,000 tested, 0.37% active | AID 1251;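 active = inhibition from about 30%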;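 also: bluetongue infection of BSR cells; cell survival read as ATP light after 72 h; 0% = infected wells without compound and 100% = uninfected wells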
Mtb H37Rv: M. tuberculosis H37Rv growth inhibitors, H37Rv strain (AID 1626). 220,000 tested, 0.95% active. inhibition, % at 10 µM; hits with a dose series show IC50 in µM. M. tuberculosis H37Rv growth inhibition; higher % means a stronger effect;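 active = confirmed in a dose series; inconclusive = inhibition above 80% but not taken into the dose series; inactive = below 80% or under 30% at every dose of the series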;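 also: bacteria incubated seven days before Alamar blue readout; 0% = bacteria only wells and 100% = bacteria with antibiotic wells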
YopH inh: YopH (Yersinia) phosphatase inhibition. fluorescence Ex485/Em525. inhibition, %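 (about 10 µM by stock and volumes)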. 140,000 tested, 0.16% active. AID 898;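 active = inhibition of 50% or more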;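 also: controls were vehicle for no effect and minimum signal wells for full effect; inactives centre near -20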
Mtb betalactam: beta-lactam sensitization of Mtb H37Rv; M. tuberculosis H37Rv growth with meropenem, percent inhibition; hits of this screen are not shown here; inhibition, % at 25 µM; 330,000 tested, 0.27% active; AID 434955;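 active = about 74% or more and at least 40 points above the plate without the antibiotic, then above 30% in a dose series; inconclusive = first-round hits that could not be retested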;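 also: growth measured after seven days incubation then overnight dye step; 0% = bacteria only wells and 100% = bacteria with antibiotic; twin plates without the antibiotic show which effects depend on it; some results filed as inactive read as strong as hits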
RecA intein inh: inhibitors of M. tuberculosis RecA intein splicing | 290,000 tested, 0.75% active | cell-free RecA intein splicing, fluorescence | inhibition, %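 (about 9 µM by stock and volumes)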; in the data active = inhibition above about 30%; inconclusive = no clear call, values can overlap the other calls;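 also: 0% = vehicle wells and 100% = reference inhibitor control wells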
Target sequence (P9WHJ3 whole entry, looked up): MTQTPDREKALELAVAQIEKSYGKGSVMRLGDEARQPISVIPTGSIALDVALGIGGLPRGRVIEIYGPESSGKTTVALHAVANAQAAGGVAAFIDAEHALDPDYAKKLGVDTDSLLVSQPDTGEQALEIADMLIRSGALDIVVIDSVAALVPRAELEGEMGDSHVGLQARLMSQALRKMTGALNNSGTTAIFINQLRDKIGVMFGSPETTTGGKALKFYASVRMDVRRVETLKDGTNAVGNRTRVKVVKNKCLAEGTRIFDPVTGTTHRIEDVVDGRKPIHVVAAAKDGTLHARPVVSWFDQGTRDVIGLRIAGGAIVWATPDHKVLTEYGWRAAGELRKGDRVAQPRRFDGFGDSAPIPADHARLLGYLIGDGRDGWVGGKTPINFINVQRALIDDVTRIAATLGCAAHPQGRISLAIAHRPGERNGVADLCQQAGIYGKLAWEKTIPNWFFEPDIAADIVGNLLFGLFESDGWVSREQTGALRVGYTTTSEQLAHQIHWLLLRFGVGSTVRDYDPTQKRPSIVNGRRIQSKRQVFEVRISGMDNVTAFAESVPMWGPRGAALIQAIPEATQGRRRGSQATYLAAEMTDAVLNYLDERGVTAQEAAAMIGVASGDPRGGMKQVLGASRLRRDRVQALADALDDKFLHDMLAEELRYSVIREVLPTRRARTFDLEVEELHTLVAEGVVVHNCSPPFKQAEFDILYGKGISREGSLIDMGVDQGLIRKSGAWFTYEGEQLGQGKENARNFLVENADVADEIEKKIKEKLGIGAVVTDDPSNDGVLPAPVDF
Arbovirus anti repeat: recorded beside Arbovirus anti, whose call it bears; inhibition, %; measured here: 10K subset replicate screen; many hits read low in the repeat;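 first of two repeat runs on a subset; 0% = infected and 100% = uninfected wells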
Starred values were filed as active, the others as inactive; ? = inconclusive; nt = no result given. An excerpt; the hit share may differ from the screen's.

Sample of the layout:
SMILES | Arbovirus anti | Mtb H37Rv | YopH inh | Mtb betalactam | RecA intein inh | others
Nc1nc(Cl)cc(N2CCC(c3cc(-c4ccc(Cl)cc4)n[nH]3)CC2)n1 | -29 | 78µM* | -21 | 19 | 6.5
CC(C)NS(=O)(=O)c1ccc(OCC(=O)N2CCN(Cc3ccccc3)CC2)c(Cl)c1 | 8 | 8% | -2 | -7 | -1.5
O=C(CSc1nc(-c2ccccc2)cc(C(F)(F)F)n1)NCc1cccs1 | 8 | 2% | -10 | 5 | -0.5

Main list, from the first entry:
SMILES | Arbovirus anti | Mtb H37Rv | YopH inh | Mtb betalactam | RecA intein inh | others
Nc1nc(Cl)cc(N2CCC(c3cc(-c4ccc(Cl)cc4)n[nH]3)CC2)n1 | -29 | 78µM* | -21 | 19 | 6.5
CC(C)NS(=O)(=O)c1ccc(OCC(=O)N2CCN(Cc3ccccc3)CC2)c(Cl)c1 | 8 | 8% | -2 | -7 | -1.5
O=C(CSc1nc(-c2ccccc2)cc(C(F)(F)F)n1)NCc1cccs1 | 8 | 2% | -10 | 5 | -0.5
CCN(CC)c1ccc(S(=O)(=O)N2CCOCC2)cc1NC(=O)CSc1ccccc1 | nt | nt | nt | -6 | 6.0
CCCCC(=O)N1CCN(c2nc3ccc(Br)cc3s2)CC1 | nt | nt | nt | 15 | -1.8
O=C(N/N=C/c1ccc(O)cc1)c1ccncc1 | nt | nt | nt | 6 | -2.9
CCN(CC)S(=O)(=O)c1cccc(C(=O)Nc2ccccc2C(=O)N2CCOCC2)c1 | 4 | 2% | -24 | -10 | -0.1
COc1ccc(NC(=O)COC(=O)Cc2ccc(-c3ccccc3)cc2)c(OC)c1 | -5 | 5% | -33 | 89 | 12
CSc1sc(-c2ccnc(SCCS(C)(=O)=O)n2)c(-c2ccccc2)c1C#N | nt | -3% | nt | 6 | nt
CC(C(=O)N1CCC(C(N)=O)CC1)N(c1ccc(Oc2ccccc2)cc1)S(C)(=O)=O (centres undefined) | 3 | 0% | -2 | -10 | -1.8
CN(C(=O)COC(=O)c1ccccc1Nc1ccccc1)c1c(N)n(Cc2ccccc2)c(=O)[nH]c1=O | nt | nt | nt | -5 | 0.8
CCOc1ccc(NC(=O)C2CCN(C(=O)NCc3ccccc3)CC2)cc1 | -26 | 42% | -53 | 89 | 1.1
Cc1nc2c(c(=O)[nH]1)C(c1ccc([N+](=O)[O-])cc1)c1c(c3ccccc3oc1=O)O2 (centres undefined) | nt | 1% | nt | 5 | -1.7
CC(=O)c1ccc(S(=O)(=O)N2CCc3ccccc3C2)cc1 | nt | nt | nt | -1 | 0.3
COc1ccc(CNC(=O)CN2C(=O)COc3ccc(S(=O)(=O)N4CCOCC4)cc32)cc1 | nt | nt | nt | -3 | -0.4
OCCNCC1(O)C2CC3CC(C2)CC1C3 (centres undefined) | 5 | -13% | -45 | 7 | 5.6
Cc1cc(C(=O)NNC(=O)CCN2CCN(c3ccccc3)CC2)c2ccccc2n1 | 3 | -8% | nt | 2 | -1.5
CCCSc1cc(N2CCN(C)CC2)nc(-c2ccc(OC)cc2)n1 | -22 | 11µM* | -5 | 99 | 2.1
Nc1ccc(-c2c3ccc(=O)cc-3oc3cc(O)ccc23)cc1C(=O)O | nt | nt | nt | 4 | -32
CCOc1cc(C(=O)Nc2ccc(S(=O)(=O)N3CCCCC3)cc2)ccc1OCC(=O)N1CCOCC1 | nt | nt | nt | -7 | -0.2
Cc1ccc(Cl)cc1NC(=O)c1ocnc1C | 3 | 1% | -42 | nt | 1.4
Cc1ccc2cc(CN(Cc3nnnn3Cc3ccco3)CC3CCCO3)c(=O)[nH]c2c1C (centres undefined) | 2 | -3% | -25 | -15 | -2.3
O=C(NC1CC1)C1=C[C@H](c2ccc(C(F)(F)F)cc2)C[C@H](OCc2ccc(CO)cc2)O1 | -1 | -2% | nt | 0 | 4.6
CCOP(=O)(c1ccc(N(C)C)cc1)C(O)c1ccccc1F (centres undefined) | nt | nt | nt | 7 | 5.5
CCc1ccc(C2=NN(C(=O)CCC(=O)O)C(c3cccs3)C2)cc1 (centres undefined) | nt | nt | nt | 6 | 0.8

7 compounds drawn at random from those above, as already listed:
SMILES | Arbovirus anti | Mtb H37Rv | YopH inh | Mtb betalactam | RecA intein inh | others
CCCSc1cc(N2CCN(C)CC2)nc(-c2ccc(OC)cc2)n1 | -22 | 11µM* | -5 | 99 | 2.1
O=C(N/N=C/c1ccc(O)cc1)c1ccncc1 | nt | nt | nt | 6 | -2.9
Cc1ccc2cc(CN(Cc3nnnn3Cc3ccco3)CC3CCCO3)c(=O)[nH]c2c1C (centres undefined) | 2 | -3% | -25 | -15 | -2.3
CCOc1ccc(NC(=O)C2CCN(C(=O)NCc3ccccc3)CC2)cc1 | -26 | 42% | -53 | 89 | 1.1
CC(=O)c1ccc(S(=O)(=O)N2CCc3ccccc3C2)cc1 | nt | nt | nt | -1 | 0.3
Cc1ccc(Cl)cc1NC(=O)c1ocnc1C | 3 | 1% | -42 | nt | 1.4
CCN(CC)c1ccc(S(=O)(=O)N2CCOCC2)cc1NC(=O)CSc1ccccc1 | nt | nt | nt | -6 | 6.0

Remaining list, next part:
SMILES | Arbovirus anti | Mtb H37Rv | YopH inh | Mtb betalactam | RecA intein inh | others
COc1ccc(S(=O)(=O)N2CCOCC2)cc1NC(=O)COC(=O)C1=COCCO1 | nt | -9% | nt | -4 | 1.2
O=C(Cc1ccccc1)O/N=C1\CCCc2ccccc21 | 3 | 3% | nt | 2 | 3.6
COc1ccc(C(=O)NNC(=O)c2ccc3ccccc3c2O)cc1 | nt | nt | nt | -6 | -0.5
O=[N+]([O-])C1=CC=C2C(=NC3(CCCCC3)N2O)C1=NC1CCCCC1 | 0 | -1% | -26 | 10 | nt
O=C(NCCN1CCCCC1)Nc1ccc(F)c(Cl)c1 | 16 | -7% | -23 | -7 | 1.2
O=C(CN1CCCCC1)NCCNc1ccc(C(F)(F)F)cc1[N+](=O)[O-] | -19 | -1% | -13 | -1 | -0.8
CCOC(=O)/C=c1\s/c(=C(\C#N)C(=O)NC)n(-c2ccccc2)c1=O | -3 | -10% | -26 | -9 | -0.8
COc1ccc(CCNC(=O)C2CCCN(Cc3nc(-c4ccccc4C)oc3C)C2)cc1OC (centres undefined) | -16 | nt | -17 | 11 | -0.7
CCN1CC2([N+](=O)[O-])C=CC(=O)C([N+](=O)[O-])(C1)C2CC(=O)c1ccccc1 (centres undefined) | 8 | -13% | -31 | ? | 4.1
Cc1ccc(NCC(=O)Nc2ccc(Br)cc2)cc1F | 13 | 14% | -2 | 6 | 0.7
O=C(Cn1nnc(-c2ccccc2NC(=O)c2ccccc2F)n1)NC1CCCC1 | -1 | -6% | nt | 1 | 0.8
Cn1c(CNS(=O)(=O)c2ccc(Cl)cc2)n[nH]c1=S | 2 | 5% | -55 | -1 | nt
Cc1cc(NC(=O)c2ccc(F)cc2)ccc1NC(=O)c1ccco1 | nt | nt | nt | 3 | 4.0
COC(=O)C1(Cc2cc(-c3ccc(Cl)cc3)no2)CCN(C(=O)OC(C)(C)C)CC1 | nt | nt | nt | 41 | 19
Cn1cccc1Cc1nnc(SCC(=O)Nc2nccs2)n1CCc1ccccc1 | -2 | nt | -16 | 1 | 4.4 | Arbovirus anti repeat=5
COC(=O)CNC(=O)Cn1ccc2ccccc2c1=O | 10 | 6% | -46 | -1 | -3.4
COc1cc(NC(=O)CSCC(=O)Nc2cccc(C(F)(F)F)c2)c(Cl)cc1Cl | -26 | 8% | -40 | 1 | 2.3
Cn1cc2cc([N+](=O)[O-])ccc2n1 | 1 | -3% | nt | -2 | 6.0
O=C(COc1ccccc1)N/N=C/c1sc(=O)n(Cc2cccc(C(=O)O)c2)c1Cl | nt | -12% | nt | -5 | 9.5
N/C(=N\NC(=O)c1ccc(F)cc1)c1cc2ccccc2oc1=O | -1 | 4% | nt | -11 | -1.6
CCCCS(=O)(=O)N1CCCC(C(=O)Oc2ccc(Cl)cc2)C1 (centres undefined) | nt | nt | nt | 2 | 1.4
O=C(O)CCC(=O)N1N=C(c2c(-c3ccccc3)c3cc(Cl)ccc3[nH]c2=O)CC1c1ccccc1 (centres undefined) | 5 | -3% | nt | 8 | 7.9
COc1ccc(C2CC(=O)C=C(NNS(=O)(=O)c3ccc(C)cc3)C2)cc1 (centres undefined) | -6 | 3% | -20 | -8 | -1.1
COc1cccc(NC(=O)CN2CCN(c3ccc(F)cc3)CC2)c1 | 4 | -9% | -36 | 92 | 3.2
CC(C)CCNc1nc(N)c([N+](=O)[O-])c(N2CCCCCC2)n1 | nt | nt | nt | 87 | 4.3
SMILES | Arbovirus anti | Mtb H37Rv | YopH inh | Mtb betalactam | RecA intein inh | others
Oc1ccc(/C=N/n2c(COc3ccccc3)n[nH]c2=S)cc1O | nt | nt | nt | ? | -3.7
COCC1CCN(C(=O)c2cc(COc3cccc4cnccc34)on2)CC1 | nt | nt | nt | 2 | -2.6
COc1ccc(OC)c(CN2CCN(C(=O)c3cc4ccccc4cc3O)CC2)c1 | nt | nt | nt | -10 | -2.0
CN1CCS/C1=C\C=C1/SC(=S)N(CC(=O)O)C1=O | -10 | 4% | nt | nt | nt
CCC(C)(NC(=O)c1ccccc1)C(=O)O (centres undefined) | 6 | -8% | -1 | -3 | -1.5
Cc1ccc(NC(=O)NC2CC(=O)N(c3ccc4c(c3)OCCO4)C2)cc1C (centres undefined) | nt | nt | nt | -3 | -0.9
CCOC(=O)c1cc(C(C)(C)C)oc1CN | -1 | -5% | -29 | 12 | -1.3
C/C=C(\C)C(=O)NCCN1C2=NC[C@H](Cc3ccc(O)cc3)N2C[C@H]1Cc1ccc(O)cc1 | 1 | -1% | nt | -4 | -0.6
CCOc1ccc(-c2cc(C(=O)OC)[nH]n2)cc1 | 6 | 3% | nt | 11 | -0.8
Cc1cccc(CN2CCN(Cc3ccc4nonc4c3)CC2CCO)n1 (centres undefined) | -1 | -2% | nt | -1 | -17
Cc1cccc(/C=C2/SC(=O)N(Cc3ccccc3Cl)C2=O)n1 | 4 | -2% | -13 | -3 | 1.5
CCN1C(C)=C(C)S/C1=C1\SC(=S)N(C2CCCCC2)C1=O | 0 | -3% | nt | 1 | -0.6
Nc1ncnc2nc(SCc3ccccc3)[nH]c12 | 3 | 5% | -170 | 7 | -4.2
CCOP(=O)(OCC)c1cc(CC)ccc1O | nt | 0% | nt | -3 | -0.5
CCCCc1ccc(NC(=O)COc2ccc(C(=O)Nc3ccccc3C)cc2)cc1 | 4 | 74% | -35 | 62 | 0.1
CC(=O)c1ccc(NC(=O)CCc2c(C)nn(-c3ccc(N4CCOCC4)nn3)c2C)cc1 | nt | nt | nt | -2 | 0.5
CCOC(=O)c1c(C)c(C(=O)NCc2ccco2)c(C)n1CC | 10 | -1% | nt | 7 | -1.4
CCOc1cc2c(C)cc(=O)oc2cc1Cl | -4 | -1% | -58 | 10 | 1.0
CCC(C)Sc1nc2c(c(=O)[nH]1)C(c1cccs1)C1=C(CCCC1=O)N2 (centres undefined) | 33* | -5% | nt | -7 | 0.9
O=C1C2Sc3[nH]c(=O)sc3C(c3ccccc3)C2C(=O)N1c1ccccc1 (centres undefined) | 1 | -6% | -122 | 1 | -7.6
Cc1ccc(S(=O)(=O)N2CCOCC2)cc1C(=O)c1nccn1C | 10 | 1% | nt | 2 | 4.9
CCN(CC(=O)NCCN1CCOCC1)S(=O)(=O)c1ccc(F)cc1 | nt | nt | nt | -3 | 1.0
C=C(C)CNC(=S)N/N=C/c1ccc(N2CCOCC2)cc1 | -14 | 4% | -21 | 4 | 0.7
CN(C)S(=O)(=O)c1cc(NC(=O)CNCc2ccc(F)cc2)ccc1Cl | nt | nt | nt | 2 | -2.4
Brc1ccc2ncc(Br)cc2c1 | 0 | 9% | -28 | 1 | -1.5
SMILES | Arbovirus anti | Mtb H37Rv | YopH inh | Mtb betalactam | RecA intein inh | others
Cc1cccnc1NC(=O)C1CCN(S(=O)(=O)c2ccc3c(c2)CCC(=O)N3)CC1 | -1 | -17% | -34 | -1 | -2.2
CC(C)N1C(=O)C2(OCCCO2)c2cc(Br)ccc21 | nt | nt | nt | 1 | 1.0
CN(C(=O)CCN1C(=O)/C(=C/c2ccccc2F)SC1=S)C1CCS(=O)(=O)C1 (centres undefined) | nt | nt | nt | 5 | -0.3
CC1CCN(CCOc2cc(Cl)ccc2Cl)CC1 | 8 | 2% | 16 | -13 | 0.2
Cc1ccccc1Nc1nc(N)nc(CSc2nncn2C)n1 | 13 | -1% | nt | 4 | -0.2
CCN1CCN(C(=O)c2[nH]c3ccc(OC)cc3c2C)CC1 | nt | nt | nt | 0 | -3.0
O=C(CSc1nc(-c2ccccc2)cc(C(F)(F)F)n1)NCc1ccco1 | 3 | -6% | 4 | 2 | -0.5
O=C(COC(=O)c1ccc(S(=O)(=O)N2CCc3ccccc3C2)cc1)NC1CCS(=O)(=O)C1 (centres undefined) | 6 | -1% | nt | -1 | -1.2
